NS1 function inh: qHTS Assay for Inhibitors of Influenza NS1 Protein Function | actives 0.4% (n = 270,000) | S. cerevisiae slowed by influenza A NS1, growth recovery by OD600 | Potency, µM (top dose mostly 46.1 µM), inactives show at the highest dose activity, positive = more growth; active means well fitted rising curve with a large enough effect; inconclusive means small, poorly fitted or top-dose-only effect; inactive means no such curve, though single readings can be large or run the other way; note: nearly all actives have a fitted effect of over 50% in size
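OD600 was taken as the measure of yeast growth restored by compound in an NS1-expressing S. cerevisiae strain. Cells had been washed out of glucose medium and diluted 1:100 into galactose -URA medium, pH 6.0.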
Cruzain inh Det: qHTS Assay for Promiscuous and Specific Inhibitors of Cruzain (with detergent); purified cruzain, Z-FR-AMC fluorescence, 0.01% Triton; Potency, µM, for the others: max response, negative = inhibition, most hits filed as inhibitors; actives 0.43% (n = 200,000);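 note: plate controls were neutral wells for no effect and buffer without enzyme for full effect; nearly all actives have a fitted effect of over 40% in size; top concentration of the series not given in the record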
Target sequence (P25779 123-467 limits assumed): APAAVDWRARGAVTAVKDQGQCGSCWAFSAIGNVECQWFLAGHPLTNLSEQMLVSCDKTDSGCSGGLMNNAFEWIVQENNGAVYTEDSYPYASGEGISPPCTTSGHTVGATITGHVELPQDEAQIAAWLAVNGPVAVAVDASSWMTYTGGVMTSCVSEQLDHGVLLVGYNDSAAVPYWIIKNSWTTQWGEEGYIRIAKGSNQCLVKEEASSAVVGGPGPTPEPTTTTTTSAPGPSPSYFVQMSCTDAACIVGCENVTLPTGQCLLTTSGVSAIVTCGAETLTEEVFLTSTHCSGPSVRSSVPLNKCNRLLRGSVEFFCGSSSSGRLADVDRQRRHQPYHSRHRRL
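Read-out: AMC fluorescence (360 nm excitation, 450 nm emission), four reads over 2 min, first-to-third difference used. Conditions: cruzain 1.5 nM, Z-FR-AMC 2 uM, pH 5.5 acetate, 5 mM DTT, 0.01% Triton X-100.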
RE007 growth inh: qHTS Assay for Inhibitors of the HIV-1 protein Vpr; S. pombe RE007 Vpr strain, BacTiter-Glo ATP luminescence, 24 h; control for the full effect not named in the record; Potency, µM (top dose mostly 92.2 µM), inactives show at the top dose activity change, negative = less growth; actives 0.21% (n = 360,000); AID 651644, 2012; active = well fitted falling curve with a large enough effect; inconclusive = small, poorly fitted or top-dose-only effect; inactive = no such curve, though single readings can be large or run the other way;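 note: % is set by controls: 0 for no effect and ±100 for the full control effect; nearly all actives have a fitted effect of over 50% in size; the assay follows cell death caused by Vpr and the record does not say whether a fall means rescue or toxicity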
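Fission yeast RE007 carrying one integrated HIV-1 vpr copy, seeded at OD 0.01 in PMG+AL medium with 23 nL pinned compound. Grown 24 h at 30 degrees; viability read by BacTiter-Glo luminescence after 5 min.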
2A StopGo: High Throughput Screening for Foot and Mouth Disease Virus Antivirals | human cells with a luciferase reporter of 2A StopGo recoding; control for the full effect not named in the record | Potency, µM (titrated, usually from 57.9 µM), for the others: at the top dose signal change, negative = less light | actives 1.2% (n = 410,000) | AID 1159524, 2015; active = well fitted falling curve with a large enough effect; inconclusive = small, poorly fitted or top-dose-only effect; inactive = no such curve, though single readings can be large or run the other way; tested in HEK293T cells; note: % is set by controls: 0 for no effect and ±100 for the full control effect; nearly all actives have a fitted effect of over 45% in size; luciferase light after 4 h
Lassa entry inh: qHTS for Inhibitors of binding or entry into cells for Lassa Virus; Lassa virus pseudotype entry inhibition, cell reporter; control for the full effect not named in the record; actives 1.2% (n = 300,000); Potency, µM (highest dose often 37.9 µM), without a hit: top-dose activity change, negative = inhibition, hits mostly inhibitors; active means well fitted inhibition curve with a large enough effect; inconclusive means small, poorly fitted or top-dose-only effect, or effect the other way; inactive means flat fitted curve, though single readings scatter; tested in HEK293 cells; note: % is set by controls: 0 for no effect and ±100 for the full control effect; nearly all actives have a fitted effect of over 50% in size; luciferase read-out
MARV entry inh: qHTS for inhibitors of binding or entry into cells for Marburg Virus; Marburg virus pseudotyped entry inhibition, cell reporter; control for the full effect not named in the record; about a third of the inactives were read at about 46 µM; Potency, µM (top dose mostly 37.8 µM), without a hit: at the top dose activity change, negative = inhibition, actives largely listed as inhibitors; actives 1.8% (n = 300,000); AID 540276, 2011; active = well fitted inhibition curve with a large enough effect; inconclusive = small, poorly fitted or top-dose-only effect, or effect the other way; inactive = flat fitted curve, though single readings scatter; tested in HEK293 cells; about a fifth of its hits are not listed in these tables; note: % is set by controls: 0 for no effect and ±100 for the full control effect; luciferase read-out
SARS PLP yeast: qHTS of Yeast-based Assay for SARS-CoV PLP. AID 485353, 2010. actives 0.19% (n = 330,000). Potency, µM (titrated, usually from 32.9 µM), inactives show at the top dose activity, positive = growth rescue. S. cerevisiae expressing SARS-CoV PLpro, growth rescue; control for the full effect not named in the record; active means well fitted rising curve with a large enough effect; inconclusive means small, poorly fitted or top-dose-only effect; inactive means no such curve, though single readings can be large or run the other way; note: 0% is about no effect; nearly all actives have a fitted effect of over 55% in size; growth read by luminescence after 48 h
Cruzain inh noDet: qHTS Assay for Promiscuous and Specific Inhibitors of Cruzain (without detergent); Potency, µM, for inactives: max response, negative = inhibition, hits mostly inhibitors; actives 2.3% (n = 200,000); purified cruzain, Z-FR-AMC fluorescence, no detergent; Cruzipain (Trypanosoma cruzi), P25779; AID 1476, 2009;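 note: plate controls were enzyme without inhibitor for no effect and buffer without enzyme for full effect; nearly all actives have a fitted effect of over 40% in size; top concentration of the series not given in the record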
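Purified cruzain at 1.5 nM, pre-incubated 15 min with compound at room temperature in 100 mM sodium acetate pH 5.5, 5 mM DTT, 0.00005% Triton X-100. Reaction started with 2 uM Z-FR-AMC; AMC fluorescence increase over 60 s gives rate.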
Active calls of the source: *; ? = inconclusive; . = not tested or not shown; & = joins results of further samples; [ ] = dose if it differs, or a comment. Unless noted, calls come from the whole dose curve; as a rule, active = well fitted curve in the direction sought with a large enough effect; inconclusive = small, poorly fitted or top-dose-only effect, or another doubt; inactive = no such curve, though single readings can be large; an effect the other way counts as inactive or inconclusive. Potency is the fitted concentration of half-maximal effect.

#	SMILES	RE007 growth inh	Cruzain inh Det	SARS PLP yeast	2A StopGo	MARV entry inh	Lassa entry inh	NS1 function inh	Cruzain inh noDet
1	CC(OC(=O)Nc1ccccc1)C(=O)OC1CCCCC1 (stereo not drawn)	8%	.	.	16%	?	11%[46.1 µM]	.	.
2	CCOC(=O)c1cnc(SCc2ccc(C(C)(C)C)cc2)nc1N	-6%	-7.8%	-1%	-27%	-3%	4.1µM*	3%	7%
3	COc1ccc(NC(=O)c2cc(-c3ccccc3)on2)cc1OC	-7%	.	-2%	29%	.	.	-7%	.
4	O=C(CSc1ncn[nH]1)Nc1ncc(C(F)(F)F)cc1Cl	18%	.	-1%	-7%	18%[46.1 µM]	3%	6%	.
5	CCOc1ccc(CCNC(=O)c2cccc(S(=O)(=O)N3CCN(C(C)=O)CC3)c2)cc1OCC	6%	.	4%	-6%	-4%	31%	.	.
6	Cc1cccc(C)c1NC(=O)C1(N(C(=O)c2ccccn2)c2ccc(O)cc2)CCCCC1	0%	.	0%	1%	?	-3%[46.1 µM]	-3%	.
7	COc1ccc(NS(=O)(=O)c2cccc(C(=O)N3CCN(c4ccccc4O)CC3)c2)cc1	8%	.	1%	-2%	-10%	-21%	.	.
8	Oc1ccc(-c2n[nH]c(C(F)(F)F)c2-c2ccccc2)c(O)c1	21%	.	4%	20µM*	?	?	5%	.
9	O=C(COC(=O)COc1ccc(Cl)cc1Br)NC1CC1	11%	.	-5%	13%	-3%[46.1 µM]	1%[46.1 µM]	.	.
10	COc1ccccc1-c1cc(C(=O)N2CCCC2)no1	-22%	.	-7%	14%	?	-27%[46.1 µM]	-27%	.
11	Cc1cccc(Oc2cc(N)cc([N+](=O)[O-])c2)c1	30%	-13%	-1%	-7%	0%	-20%	-1%	-10%
12	CC(Oc1ccc(Br)cc1Br)C(=O)Nc1cccnc1 (stereo not drawn)	-15%	.	-14%	?	.	.	-103%	.
13	COc1cc2c3nnc(-c4ccc(F)cc4)c-3cn(Cc3ccccc3F)c2cc1OC	-26%	.	2%	?	?	?	.	.
14	c1ccc(CNC2=NCCS2)cc1	-17%	6.9%	0%	-12%	15%	12%	6%	-1%
15	COc1ccc2c(c1)CC/C(=C/c1ccco1)C2=O	-27%	22µM*	-51%	14%	?	?	-10%	20µM*
16	COCCn1c(-c2ccccc2Cl)nc2c(c(=O)c3ccccc3n2C)c1=O	-4%	-2.0%	-18%	-25%	?	-2%	0%	-1%
17	Cc1cccnc1CN1CCN(C(=O)CCc2nnc(CCc3ccccc3)o2)CC1	-2%	.	0%	18%	?	2%[46.1 µM]	-3%	.
18	CC1CCN(CCOc2ccccc2-c2ccccc2)CC1	5%	1.7%	8%	-13%	?	?	-10%	-8%
19	COc1cccc(OC)c1C(=O)NCCSC1CCCCC1	8%	.	1%	-17%	-17%	7%	-33%	.
20	C/C(=N/NC(=O)c1ccc(Br)o1)c1cccc(NC(=O)c2ccc(F)cc2)c1	-2%	.	-3%	0%	-2%	?	-20%	.
21	COC(=O)C1=C(C)Nc2ncnn2C1c1ccccn1 (stereo not drawn)	-7%	0.2%	5%	-24%	10%	33%[14.3 µM]	0%[9.22 µM]	2%
22	Cc1c(Cl)cccc1NC(=O)CC1NCCNC1=O (stereo not drawn)	19%	2.1%	1%	-18%	12%	10%	1%	-12%
23	CC(C)(C)SCCNC(=O)c1ccc(Cl)c(S(=O)(=O)N2CCOCC2)c1	-1%	.	.	?	?	-16%	.	.
24	O=[N+]([O-])c1ccc(O)c(/C=N/Nc2nn[nH]n2)c1	?	.	-4%	12%	14%[46.1 µM]	-26%[46.1 µM]	.	.
25	CN(C(=O)CN1C(=O)NC(C)(CCc2ccccc2)C1=O)c1ccccc1 (stereo not drawn)	-5%	.	-1%	-20%	3%	?	.	.
26	COc1cc2c(cc1OC)-c1cc3ccc4c(c3c[n+]1CC2)OCO4	-1%	-11%	-33%	-8%	-21%	6%	7%	-2%
27	CCc1nc(N2CCC3(CC2)OCCO3)c2nnn(Cc3ccccc3Cl)c2n1	-15%	0.0%	-13%	-5%	0%	17%	1%	?
28	O=C(CCNC(=O)c1ccco1)Nc1cccc(Br)c1	23%	.	2%	-6%	-4%	2%	.	.
29	COc1ccc(Cn2nnnc2CN2CCc3ccccc3C2)cc1	15%	-0.5%	-4%	-3%	?	-29%	-17%	-2%
30	COc1ccc(C(=O)Nc2ccc(S(=O)(=O)Nc3nccc(C)n3)cc2)cc1	1%	.	1%	22%	.	.	3%	.
31	CCS(=O)(=O)N1CCC(C(=O)Nc2cc([N+](=O)[O-])ccc2C)CC1	33%	.	5%	-12%	.	.	-3%	.
32	Cc1ccc(S(=O)(=O)N2CCN(C(=O)CCC(=O)N3CCc4ccccc43)CC2)cc1	2%	-0.4%	5%	-6%	5%&29%	-16%	0%	28%
33	COC(=O)[C@@H](NC(=O)N1CCC(Cc2ccccc2)CC1)C(C)C	6%	.	0%	-7%	0%[46.1 µM]	-15%[46.1 µM]	-3%	.
34	O=C(CSCc1c(F)cccc1F)Nc1ccccc1	23%	.	-4%	15%	?	-3%[46.1 µM]	-6%	.
35	O=C(CCN1C(=O)/C(=C/c2ccccc2)SC1=S)N[C@@H](CO)Cc1ccccc1	-6%	.	-5%	-13%	.	.	-2%	.
36	COC(=O)c1ccc(C2c3c(-c4ccccc4O)n[nH]c3C(=O)N2Cc2cccnc2)cc1 (stereo not drawn)	.	-1.9%	.	9%	15%[46.1 µM]	?	.	-10%
37	O=c1[nH]c(-c2ccccc2)nc(CN2CCCCC2)c1O	-3%	.	.	6%	6%	5%	.	.
38	Cc1c(C=O)c2ccccc2n1Cc1ccc(F)cc1	50%	.	0%	-16%	-22%[46.1 µM]	?	-9%	.
39	CN(C)/C=C/C1=CC(=O)CC(C)(C)C1	1%	.	1%	-10%	-16%[46.1 µM]	0%	.	.
40	COc1cc(-c2onc3ccc(Br)cc23)cc(OC)c1OC	14%	.	1%	?	.	-26%	-1%	.
41	CCCn1c(C)cc(=O)c2cc(NC(=O)c3cnccn3)ccc21	-21%	-2.0%	-3%	-9%	-20%	-8%	-7%	0%
42	CCC(C(=O)OCC(=O)NC(=O)c1ccccc1OC)c1ccccc1 (stereo not drawn)	-7%	.	-6%	-11%	-2%[46.1 µM]	0%	.	.
43	CNc1cc(N2CCNCC2)ccc1[N+](=O)[O-]	-1%	.	2%	-13%	.	.	0%	.
44	COC(=O)c1ccccc1NC(=O)CN(c1ccccc1OC)S(C)(=O)=O	.	-0.8%	.	-2%	17%[46.1 µM]	?	.	-2%
45	CC1CCC2(CC1)NC(=O)N(CC(=O)NC(=O)Nc1ccc3c(c1)OCCO3)C2=O (stereo not drawn)	-12%	.	-1%	-21%	-2%[46.1 µM]	-20%	2%	.
46	Cc1ccc2nc(NC(=O)COC(=O)c3ccncc3)sc2c1	12%	.	2%	45%[activator]	?	14%	.	.
47	O=C(COC(=O)c1cc2ccccc2o1)c1ccccc1	-14%	-6.2%	-1%	-2%	27%[46.1 µM]	13%	-3%	1%
48	COc1ccc(-c2c(C)oc3c(CN4CCOCC4)c(O)ccc3c2=O)cc1OC	7%	.	-1%	-29%	0%	.	5%	.
49	Cc1cccc(N2CCN(C(=O)C3CCCN(S(=O)(=O)c4c(C)noc4C)C3)CC2)c1C (stereo not drawn)	-4%	.	.	-23%	-8%	.	-29%	.
50	CCOC(=O)c1c(NC(=O)CSc2nnc(Cc3csc(N)n3)n2C)sc(C)c1C	0%	3.9%	0%	.	-2%	2%	1%	17%
51	CC1=C(C(=O)OCCCCCl)C(c2cc3c(cc2Br)OCO3)NC(=O)N1 (stereo not drawn)	6%	.	-3%	-25%	-25%[46.1 µM]	-12%[46.1 µM]	18%	.
52	COc1ccc(OC)c(S(=O)(=O)Nc2cc3c(cc2N2CCCC2)n(C)c(=O)c(=O)n3C)c1	-3%	.	0%	1%	-6%[46.1 µM]	14%[46.1 µM]	7%	.
53	Cc1ccccc1N(C(=O)Cn1nnc(-c2ccc(F)cc2)n1)C(C(=O)NC(C)(C)C)c1ccncc1 (stereo not drawn)	1%	.	0%	3%	?	5%	6%	.
54	Cc1ccccc1-n1c(-c2ccco2)n[nH]c1=S	-14%	-3.8%	-14%	-12%	?	11%	11%	-9%
55	CSc1ccccc1OCc1cc(C(=O)NCc2cccc(C)n2)no1	-12%	.	1%	13%	.	.	-9%	.
56	O=C(CN(Cc1ccccc1)C(=O)CCC(=O)Nc1ccccn1)NCc1ccco1	11%	-1.4%	1%	-8%	?	-7%	-14%	-10%

Following part.
#	SMILES	RE007 growth inh	Cruzain inh Det	SARS PLP yeast	2A StopGo	MARV entry inh	Lassa entry inh	NS1 function inh	Cruzain inh noDet
57	COc1ccccc1CNC(=O)c1ccc(CS(=O)(=O)c2ccccc2)o1	12%	.	?	-9%	.	.	13%	.
58	Cc1nc(Nc2ccc(Cl)cc2)cc(-c2ccccc2)n1	.	-18%	.	0%	26%[46.1 µM]	?	.	-12%
59	CC(C)C[C@H](NC(=O)C1CCN(S(=O)(=O)c2ccccc2)CC1)C(=O)NCc1cccnc1	0%	.	-1%	2%	-1%[46.1 µM]	-2%[46.1 µM]	-7%	.
60	CCOc1ccc(-n2nc3ccc(NC(=O)c4cccc(F)c4)cc3n2)cc1	.	0.0%	.	-6%	9%[46.1 µM]	-1%[46.1 µM]	.	7%
61	COc1ccc(NC(=O)c2c3c(nc4ccccc24)CCC3)cc1	-11%	6.2%	-14%	12%	?	-3%	-3%	?
62	O=C(Cc1cccc2ccccc12)NNC(=O)Nc1cccc(Cl)c1	-17%	6.9%	0%	-1%	?	?	3%	-21%
63	O=C(Nc1ccc(NC(=O)c2cccnc2)cc1)c1ccccc1	-7%	.	1%	-3%	6%[46.1 µM]	0%	0%	.
64	Cn1ccnc1SCCNC(=O)C1CCC(=O)N(Cc2ccc(Cl)cc2)C1 (stereo not drawn)	12%	.	0%	-6%	.	.	-2%	.

Compounds were not picked by outcome; about 4.6% have a hit in one of these screens.
